Source: PubChem
Menin MLL FP FL = menin-MLL binding inhibition, fluorescein peptide; Fluorescence polarization, fluorescein-MLL peptide displacement from menin; FP activity change, % at 61.4 µM; 290,000 tested, under 10 active; AID 1766; inconclusive = falling polarisation curve, or a change in total fluorescence; inactive = total fluorescence flat and polarisation flat or rising; no compound was filed as active; the % refers to the polarisation; negative = inhibition;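 further: % of control where 0% means no effect; inhibitors lower the polarisation; unlabelled MLL peptide was the positive control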
gsp ag = activates gsp, the McCune-Albright syndrome mutation; gsp mutant cells, cAMP HTRF, 30 min; control for the full effect not named in the record; actives 0.13% (n = 340,000); Potency, µM (top dose mostly 76.9 µM), without a hit: top-dose activation (cAMP increase), usual class: activators; active = well fitted activation curve with a large enough effect; inconclusive = small, poorly fitted or top-dose-only effect, or another doubt; inactive = no such curve, though single readings can be large or run the other way; cell line not stated here;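 further: phosphodiesterase inhibitor Ro 20-1724 added with compounds to block cAMP breakdown; potency means the concentration at half of the fitted maximal effect; nearly all actives have a fitted effect of over 60% in size; about a fifth of the inactives were tested at one dose only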
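Cells in DMEM/10% FBS with G418 were pretreated with compounds in DMSO plus […] (300 uM stock) for 30 min at 37C. cAMP was measured by HTRF (cAMP-d2 plus anti-cAMP antibody-K) after 30 min at room temperature.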
TRPML1 inh = human mucolipin-1 channel inhibition. Q9GZU1. TRPML1-inducible cells, Ca2+ dye fluorescence, FDSS; active compounds read low; inhibition of EC80 agonist-evoked calcium signal. activity change, negative = inhibition, % (concentration not given with the values). actives 0.02% (n = 390,000); in the data active means activity change below about -50%; inconclusive means about -30% to -50%; inactive means above about -30%;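 further: stimulus is agonist 54-4 at its EC80 concentration; on the % scale 0 is the no-effect control and ±100 the full control effect; the text of the record puts the active cut at -80%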
Target sequence (Q9GZU1 whole entry, looked up): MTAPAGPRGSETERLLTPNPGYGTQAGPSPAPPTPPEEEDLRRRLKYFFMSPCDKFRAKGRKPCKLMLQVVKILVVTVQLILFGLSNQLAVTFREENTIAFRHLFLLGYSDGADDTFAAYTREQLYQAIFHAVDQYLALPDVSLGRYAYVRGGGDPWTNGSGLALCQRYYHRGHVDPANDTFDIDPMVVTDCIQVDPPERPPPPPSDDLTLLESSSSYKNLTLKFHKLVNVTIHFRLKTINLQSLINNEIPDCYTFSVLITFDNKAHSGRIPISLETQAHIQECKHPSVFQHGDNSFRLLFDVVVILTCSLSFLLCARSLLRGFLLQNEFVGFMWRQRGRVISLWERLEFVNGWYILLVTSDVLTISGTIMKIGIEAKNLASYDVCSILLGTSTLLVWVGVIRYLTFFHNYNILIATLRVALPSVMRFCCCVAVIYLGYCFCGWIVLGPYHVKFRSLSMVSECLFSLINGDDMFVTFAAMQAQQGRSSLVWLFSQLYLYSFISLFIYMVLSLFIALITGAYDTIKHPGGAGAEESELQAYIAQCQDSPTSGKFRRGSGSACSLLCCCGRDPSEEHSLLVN
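TRPML1-DL cells, Tet-induced overnight (~16 h, 37 °C) at 1,500 cells/well, were loaded with Ca8 no-wash dye plus quencher for 45-90 min at room temperature. Compounds were pinned during FDSS kinetic reading; agonist 54-4 at EC80 (4 uM final) then added.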
gsp antag = gsp mutant antagonism; gsp-mutant cells, cAMP HTRF, 30 min; control for the full effect not named in the record; Potency, µM (doses to about 76.9 µM), inactives show at the top dose activity change, negative = inhibition, hits mostly inhibitors; actives 0.4% (n = 340,000); AID 624288; active = falling curve of any shape with a large fitted effect; inconclusive = falling curve, mostly with a smaller effect; inactive = flat or rising curve; cell line not stated here;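 further: intracellular cAMP measured with PDE inhibitor Ro 20-1724 present during compound exposure; potency means the concentration at half of the fitted maximal effect; on the % scale 0 is the no-effect control and ±100 the full control effect; nearly all actives have a fitted effect of over 65% in size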
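HTRF cAMP read-out (cAMP-d2 plus anti-cAMP antibody-K in lysis buffer, 30 min RT). Before lysis, cells are exposed to compounds with […] for 30 min at 37C in DPBS containing Ca/Mg, BSA and Tween 20.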
ClpP mod = qHTS Assay for Activators of ClpP | purified B. subtilis ClpP, FRET peptide cleavage, 20 min | Potency, µM (series often up to 57.5 µM), without a hit: at the highest dose activity change, negative = active | actives 1.9% (n = 340,000) | AID 651965, 2013; active = well fitted falling curve with a large enough effect; inconclusive = small, poorly fitted or top-dose-only effect; inactive = no such curve, though single readings can be large or run the other way; further: potency means the concentration at half of the fitted maximal effect; the source files actives as falling curves though it sought activators and does not explain the sign; nearly all actives have a fitted effect of over 65% in size; many hits overshoot -100%
Target sequence (P80244 whole entry, looked up): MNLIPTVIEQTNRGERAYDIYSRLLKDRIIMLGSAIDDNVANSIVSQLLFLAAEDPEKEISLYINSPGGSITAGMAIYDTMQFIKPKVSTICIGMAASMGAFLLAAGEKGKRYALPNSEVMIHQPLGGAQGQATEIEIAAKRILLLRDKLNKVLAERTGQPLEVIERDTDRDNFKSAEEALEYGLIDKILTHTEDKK
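FRET quenching reversal measured ClpP activation: 10 microg/mL B. subtilis ClpP at pH 8 with the FRET-FV decapeptide, read at 430 nm after 320 nm excitation. The 20-min minus 0-min signal was scaled between DMSO/no-enzyme wells and ADEP (5.8 microM final).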
TRPML1 ag = human mucolipin-1 channel agonism; actives 0.12% (n = 410,000); activation, % (test concentration not listed); Q9GZU1; AID 624414; TRPML1-expressing cells, Ca2+ dye fluorescence, FDSS; host cell line not named in the record; reference of the full effect not given here; in the data active = activation above about 50%; inconclusive = about 30% to 50%; inactive = below about 30%; further: 0% is about no effect; the text of the record puts the active cut at 80%
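Kinetic FDSS Ca2+ read in Tet-induced TRPML1-DL cells (ABD Ca8 dye plus quencher, 45-90 min RT loading): baseline, then compound, then 110 s agonist window; EC80 agonist 54-4 at 4uM final added afterwards for a 110 s antagonist window.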
* hit, by the source's call; ? = inconclusive; nt = not tested or not shown; & = joins results of further samples; [ ] = dose if it differs, or a comment.

SMILES	Menin MLL FP FL	gsp ag	TRPML1 inh	gsp antag	ClpP mod	TRPML1 ag
S=c1[nH]c(-c2ccccc2)cn1/N=C/c1ccccc1Br	-3.8	-9%[15.4 µM]	18	-22%	0.0%	-0.9
COc1ccccc1NS(=O)(=O)c1cccs1	-0.7	-22%	-7	8%	0.6%	-0.2
CC(=O)c1ccc(N2CCN(C(=O)CCCCn3c(=O)[nH]c4ccccc4c3=O)CC2)cc1	nt	nt	11	nt	-4.5%	-0.7
CCC(O)c1nc2ccccc2n1Cc1cccc(Cl)c1 (configuration not stated)	nt	nt	6	nt	0.2%	-0.2
CCn1c(SCc2cccc(C(F)(F)F)c2)nnc1-c1ccco1	-0.1	-20%	21	-13%	-1.9%	1.5
COCCn1c(SCC(=O)N2CCCCC2)nc2c(c1=O)SC(C)C2 (configuration not stated)	4.2	-30%[inhibitor]	-3	-2%	0.5%	0.4
Cc1ccc(C(=O)C(C)[n+]2cccc(C(N)=O)c2)cc1 (configuration not stated)	-1.1	6%	17	-9%	-2.5%	2.1
COc1ccc(CCNC(=O)c2cn(C)c3ccc(S(=O)(=O)N(C)C)cc3c2=O)cc1OC	nt	nt	-1	nt	-1.4%	-1.1
C[C@@H]1CC[C@@]2(O[C@H](CCO)C[C@H](O)[C@H]2O)O1	1.8	nt	7	-2%	-0.4%	0.0
COc1ccc(-c2nnn(CC(=O)N(CC(=O)NC3CCCC3)Cc3cccs3)n2)cc1OC	2.7	20%	3	-21%	0.1%	1.1
Cc1ccc(CCNC(=O)CCSCc2ccccc2F)cc1	nt	nt	-5	nt	-0.2%	-0.2
NC(=O)c1ccsc1NC(=O)COC(=O)Cc1ccccc1Cl	nt	7%	26	-17%	-5.2%	1.3
COc1ccccc1NC(=O)c1ccc2c(c1)C(=O)N(c1ccccc1OC)C2=O	1.4	3%[15.4 µM]	-16	-22%	-1.7%	0.8
Cc1ccc(CN(C(=O)COc2ccc([N+](=O)[O-])cc2)C2CCS(=O)(=O)C2)o1 (configuration not stated)	nt	?	-11	8%	1.0%	-0.8
N#Cc1c2n(c(=O)[nH]c1=O)CCCCC2	6.3	9%	0	0%	-4.6%	-0.6
COc1ccc(Cl)cc1S(=O)(=O)Nc1ccc2c(c1)n(C)c(=O)n2C	-1.9	0%	-19&-15	-2%	-1.2%	-0.1&-0.2
O=C(c1ccccc1)c1cccn1CC(=O)N1CCCCCC1	2.5	-52%	-4	-5%	0.8%	-1.7
Cc1cc(=O)[nH]c(Nc2cccc(F)c2)n1	0.5	17%[15.4 µM]	-17	-2%	-0.7%	0.5
CC(C)(C)c1ccc(C(=O)NNC(=O)CCc2ccccc2)cc1	nt	-8%[15.4 µM]	-10	8%	nt	0.1
COc1ccc(CN2C(=O)C(C)=C(C)C2OC)cc1 (configuration not stated)	-1.8	?	9	9%	nt	-0.4
CCOc1ccc(N(C(C)C(=O)NCc2ccco2)S(C)(=O)=O)cc1 (configuration not stated)	1.5	8%	-1	-3%	-2.5%	-0.4
COc1cccc(CN(C)C(=O)Cn2cc(C)c(=O)[nH]c2=O)c1	nt	nt	1	-7%	-5.7%	0.1
Cc1ccc(OCC(=O)N2c3ccccc3NC(=O)C2(C)C)c([N+](=O)[O-])n1	-3.0	-15%[15.4 µM]	-23	nt	nt	0.7
CCOc1cccc2sc(N(Cc3cccnc3)C(=O)c3ccco3)nc12	nt	nt	-5	nt	?	1.0
Cc1nnc(NC(=O)CSc2nnc(CC(=O)Nc3ccccc3C)n2C)s1	-0.5	17%	-8	3%	nt	0.4
Cc1ccc(C(=O)c2oc3nc(C)cc(C)c3c2N)cc1	-0.2	-4%	3	-10%	-8.8%	-0.3
CN(CCC(=O)Nc1ccc(Cl)cc1)Cc1ccccc1	-4.5	-19%	-12	14%	nt	0.1
CCN(CC)CCN1C(=O)C(=O)/C(=C(/O)c2c(C)[nH]c(C(=O)OC)c2C)C1c1cccnc1 (configuration not stated)	-3.6	4%	-14	13%	-1.2%	0.5
CCOC(=O)CSc1nc2ccccc2c(=O)n1-c1ccc(C)cn1	4.0	13%	0	2%	nt	-0.7
Cc1ccc(NC(=O)CN2C(=O)C(c3ccc(C(C)(C)C)cc3)=NC2(C)C)cc1	nt	nt	20	nt	2.7%	1.6
COc1ccc(C2C(C(=O)Nc3ccccc3OC)=C(C)Nc3c(C(=O)Nc4ccccc4)cnn32)c(OC)c1 (configuration not stated)	nt	nt	-1	nt	?	1.1
CC1(C)CC(=O)NC=C(c2ccccc2)C1	-2.9	?	1	2%	-4.5%	-0.7
O=C(Nc1ccccc1C(=O)Nc1ccc(F)cc1)c1ccco1	nt	-46%[inhibitor]	5	0%	0.6%	1.7
Oc1ccc(Cl)cc1CNCC1CCCCC1	nt	8%	-8	7%	-3.7%	1.1
COc1ccc(C(=O)NC2CC2)cc1OC1CCN(Cc2ccccc2)CC1	nt	4%[15.4 µM]	-8	3%	-2.4%	0.5
Cn1c(C(=O)NCCCN2CCN(c3cccc(Cl)c3)CC2)cc2c(=O)n(C)c3ccccc3c21	7.7	?	2	-11%	-19%	0.4
CCOc1ccc(C(=O)NCCC(=O)N2CCC3(CC2)NCCc2[nH]cnc23)cc1	nt	8%	4	5%	-0.2%	-0.4
Cc1cc(NCc2ccccn2)n2nc(C)c(-c3ccccc3)c2n1	0.1	?	1	-11%	nt	2.1
Cc1cccc(-c2c3c(=O)n(C)c(=O)n(C)c3cn2-c2cc(N)c(Cl)cc2Cl)c1	nt	nt	38	nt	?	-0.5
Cc1cc(NC(=O)COc2ccc(C(C)(C)C)cc2)no1	-1.1	1%[15.4 µM]	10	0%	nt	1.3
COc1ccc(CCNC(=O)COC(=O)Cn2cnc3ccccc32)cc1OC	-2.4	5%[15.4 µM]	8	10%	nt	0.9
COc1cc(/C=C2\C(=O)ON=C2c2ccccc2)cc(OC)c1OC	8.8	-8%	-6	-8%	-1.2%	-1.2
CCc1nn(-c2cc(Oc3ccccc3)nc(-c3ccccc3)n2)c(N)c1C#N	1.7	24%	-1	14%	1.8%	2.4
Cc1cc(C)cc(NS(=O)(=O)c2ccc(NC(=S)NC(=O)c3ccc(Br)o3)cc2)c1	0.2	-28%	-4	-11%	-3.0%	2.0
CC(=O)N1CCc2cc(S(=O)(=O)Nc3ccccc3N3CCN(C)CC3)ccc21	1.7	?	-3	2%	-1.5%	-0.1
CN(C)CCN(C(=O)c1ccc(S(=O)(=O)N(C)c2ccccc2)cc1)c1nc2cc3c(cc2s1)OCO3	nt	14%	-1	-4%	-0.5%	0.2
COc1ccc(C(=O)Nc2cccnc2)cc1	1.7	-86%[inhibitor]	-7	-1%	-0.3%	-0.1
Cc1ccc(NC(=O)c2ccc(-n3cncn3)c([N+](=O)[O-])c2)cc1F	nt	-56%[inhibitor]	-3	-16%	-2.4%	-0.1
CC1=C(C(=O)N2CCCC(CCC(=O)NCc3ccccc3F)C2)OCCO1 (configuration not stated)	-5.3	2%	17	5%	nt	0.1
O=C(N[C@H](CO)[C@H](O)c1ccc([N+](=O)[O-])cc1)C(Cl)Cl	-15	nt	nt	15%	1.7%	nt

The closing 2 compounds of the section above are carried over, then new ones follow.
SMILES	Menin MLL FP FL	gsp ag	TRPML1 inh	gsp antag	ClpP mod	TRPML1 ag
CC1=C(C(=O)N2CCCC(CCC(=O)NCc3ccccc3F)C2)OCCO1 (configuration not stated)	-5.3	2%	17	5%	nt	0.1
O=C(N[C@H](CO)[C@H](O)c1ccc([N+](=O)[O-])cc1)C(Cl)Cl	-15	nt	nt	15%	1.7%	nt
O=C(Nc1ncccc1O)c1ccc(NS(=O)(=O)c2ccc3[nH]c(=O)[nH]c3c2)cc1	nt	?	1	-2%	-6.4%	-0.8
CC1Cc2ccccc2N1C(=O)CCn1c(=O)oc2ccccc21 (configuration not stated)	3.6	1%	-13	2%	-1.0%	0.4
CCCn1c(SCC(=O)Nc2ccc3c(c2)CCC3)n[nH]c1=O	6.1	16%	-8	-1%	0.7%	0.3
CCOC(=O)c1cc(S(=O)(=O)N2CCN(c3ccc(OC)cc3)CC2)[nH]n1	nt	nt	-30	nt	0.5%	1.6
Cc1ccsc1C(=O)N1CCC1(C)C(=O)NS(=O)(=O)c1ccccc1 (configuration not stated)	nt	nt	23	nt	1.4%	-0.5
Cc1c(Cl)c([N+](=O)[O-])nn1CC(=O)NCc1ccc(Cl)cc1	2.3	-43%[inhibitor]	2	-15%	0.2%	0.1

In the list so far, 9 have a Cl atom:
SMILES	Menin MLL FP FL	gsp ag	TRPML1 inh	gsp antag	ClpP mod	TRPML1 ag
CCC(O)c1nc2ccccc2n1Cc1cccc(Cl)c1 (configuration not stated)	nt	nt	6	nt	0.2%	-0.2
NC(=O)c1ccsc1NC(=O)COC(=O)Cc1ccccc1Cl	nt	7%	26	-17%	-5.2%	1.3
COc1ccc(Cl)cc1S(=O)(=O)Nc1ccc2c(c1)n(C)c(=O)n2C	-1.9	0%	-19&-15	-2%	-1.2%	-0.1&-0.2
CN(CCC(=O)Nc1ccc(Cl)cc1)Cc1ccccc1	-4.5	-19%	-12	14%	nt	0.1
Oc1ccc(Cl)cc1CNCC1CCCCC1	nt	8%	-8	7%	-3.7%	1.1
Cn1c(C(=O)NCCCN2CCN(c3cccc(Cl)c3)CC2)cc2c(=O)n(C)c3ccccc3c21	7.7	?	2	-11%	-19%	0.4
Cc1cccc(-c2c3c(=O)n(C)c(=O)n(C)c3cn2-c2cc(N)c(Cl)cc2Cl)c1	nt	nt	38	nt	?	-0.5
O=C(N[C@H](CO)[C@H](O)c1ccc([N+](=O)[O-])cc1)C(Cl)Cl	-15	nt	nt	15%	1.7%	nt
Cc1c(Cl)c([N+](=O)[O-])nn1CC(=O)NCc1ccc(Cl)cc1	2.3	-43%[inhibitor]	2	-15%	0.2%	0.1
